TRPV1 potentiator: human TRPV1 potentiation. 0.02% of 320,000 active. Q8NER1. potentiation, % at 8.33 µM. AID 540277. TRPV1-expressing cells, Fluo-8 calcium influx, capsaicin EC20 potentiation; host cell line not named in the record; control for the full effect not named in the record; active means potentiation above 80%; inconclusive means 30% to 80%; inactive means below 30%; also: 0% is about no effect
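TRPV1-expressing cells were cultured overnight at 35.5C and loaded with Fluo-8 calcium dye for 40 to 90 min at room temperature. After a 10 s baseline, compound was added and calcium influx was read kinetically for 3 min (ex 480/em 520 nm).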
Six1-Eya2 blk: inhibitors of human Six1/Eya2 interaction; AlphaScreen GST-Six1/His-Eya2 binding, biochemical; stronger effect = lower value; control for the full effect not named in the record; 0.56% of 360,000 active; activity change, % (no concentration beside the values); Q15475+O00167; in the data active = activity change below about -65%; inconclusive = about -30% to -65%; inactive = above about -30%; also: % is scaled to controls: 0 for no effect and ±100 for the full control effect; compound concentration not given in the record
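Homogeneous AlphaScreen proximity assay pairing GST-Six1 with His-tagged Eya2 (added as 5X mix: 250 nM and 500 nM) in 50 mM Tris pH 8.0, 300 mM NaCl, 1 mM TCEP. Glutathione donor and nickel acceptor beads; 1 h, 37 °C, dark.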
TRPML1 ag: activates the human TRPML1 channel; TRPML1-expressing cells, Ca2+ dye fluorescence, FDSS; host cell line not named in the record; reference of the full effect not given here; activation, % (test concentration not listed); 0.12% of 410,000 active; AID 624414; in the data active = activation above about 50%; inconclusive = about 30% to 50%; inactive = below about 30%; also: 0% is about no effect; the text of the record puts the active cut at 80%
Target sequence (Q9GZU1 whole entry, looked up): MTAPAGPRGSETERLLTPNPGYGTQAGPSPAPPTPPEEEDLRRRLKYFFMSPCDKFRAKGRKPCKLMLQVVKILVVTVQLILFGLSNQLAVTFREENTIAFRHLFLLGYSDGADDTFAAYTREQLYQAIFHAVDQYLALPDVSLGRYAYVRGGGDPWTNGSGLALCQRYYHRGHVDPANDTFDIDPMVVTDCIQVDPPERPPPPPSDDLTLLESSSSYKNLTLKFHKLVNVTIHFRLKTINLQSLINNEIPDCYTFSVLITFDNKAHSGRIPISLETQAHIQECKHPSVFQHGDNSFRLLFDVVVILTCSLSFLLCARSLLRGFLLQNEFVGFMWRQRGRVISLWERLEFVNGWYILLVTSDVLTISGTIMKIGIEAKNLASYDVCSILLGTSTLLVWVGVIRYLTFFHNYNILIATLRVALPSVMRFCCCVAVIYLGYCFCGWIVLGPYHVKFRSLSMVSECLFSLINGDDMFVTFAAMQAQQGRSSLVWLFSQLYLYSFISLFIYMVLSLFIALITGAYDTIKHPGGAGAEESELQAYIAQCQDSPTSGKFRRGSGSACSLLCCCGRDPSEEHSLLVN
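Kinetic FDSS Ca2+ read in Tet-induced TRPML1-DL cells (ABD Ca8 dye plus quencher, 45-90 min RT loading): baseline, then compound, then 110 s agonist window; EC80 agonist 54-4 at 4uM final added afterwards for a 110 s antagonist window.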
D2 PAM: positive allosteric modulators of human D2 dopamine receptor; P14416; DiscoveRx D2 beta-arrestin cells, luminescence, 90 min; 100% = 57 uM dopamine signal; potentiation, % (test concentration not listed); 0.23% of 360,000 active; active = potentiation of 50% or more; inconclusive = 30% to 50%; inactive = 30% or less;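 also: compound concentration not given in the record; tested on top of an EC20 dose of dopamine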
Target sequence (P14416 whole entry, looked up): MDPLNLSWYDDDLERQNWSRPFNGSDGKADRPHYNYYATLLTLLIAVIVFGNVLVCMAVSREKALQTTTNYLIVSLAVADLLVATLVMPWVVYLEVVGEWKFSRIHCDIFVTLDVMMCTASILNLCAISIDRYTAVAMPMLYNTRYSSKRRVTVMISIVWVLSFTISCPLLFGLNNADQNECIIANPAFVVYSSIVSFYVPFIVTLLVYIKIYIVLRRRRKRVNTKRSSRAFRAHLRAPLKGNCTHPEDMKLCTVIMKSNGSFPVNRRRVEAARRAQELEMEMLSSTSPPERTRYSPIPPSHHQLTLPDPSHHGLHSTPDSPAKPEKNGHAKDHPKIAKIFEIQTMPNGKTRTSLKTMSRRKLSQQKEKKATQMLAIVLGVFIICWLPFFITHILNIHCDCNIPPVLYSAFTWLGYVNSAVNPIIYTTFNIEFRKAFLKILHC
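D2 cells co-treated with compound plus 50 nM dopamine (EC20) for 90 min at 37 deg C to detect potentiation. Beta-arrestin recruitment was read as enzyme-fragment luminescence after 1 h at ambient temperature. Full response was set by 57 uM dopamine.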
TRPML1 blocker: human mucolipin-1 channel inhibition. TRPML1-inducible cells, Ca2+ dye fluorescence, FDSS; stronger effect = lower value; inhibition of EC80 agonist-evoked calcium signal. 0.02% of 390,000 active. AID 624415. activity change, negative = inhibition, % (concentration not given with the values). Q9GZU1; in the data active means activity change below about -50%; inconclusive means about -30% to -50%; inactive means above about -30%;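 also: stimulus is agonist 54-4 at its EC80 concentration; % is scaled to controls: 0 for no effect and ±100 for the full control effect; compound concentration not given in the record; the text of the record puts the active cut at -80%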
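TRPML1-DL cells, Tet-induced overnight (~16 h, 37 °C) at 1,500 cells/well, were loaded with Ca8 no-wash dye plus quencher for 45-90 min at room temperature. Compounds were pinned during FDSS kinetic reading; agonist 54-4 at EC80 (4 uM final) then added.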
CtBP-E1A inh: CtBP/E1A binding inhibition; AlphaScreen GST-E1A/His-CtBP binding, 1536-well; stronger effect = lower value; control for the full effect not named in the record; activity change, % (no concentration beside the values); 0.49% of 340,000 active; in the data active means activity change below about -65%; inconclusive means about -30% to -65%; inactive means above about -30%; also: % is scaled to controls: 0 for no effect and ±100 for the full control effect; compound concentration not given in the record
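Steps: dispense buffer (Tris pH 8.0, NaCl 300 mM, TCEP 1 mM, BSA, Tween 20); add 5X protein mix (GST-E1A, His-CtBP, 125 nM each); pin 23 nL compound; 2 h at 37 °C, dark; add 5X beads (50 ug/mL); 1 h; read.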
The depositor's hits bear a star; ? = inconclusive; · = not tested or not shown; & = joins results of further samples.

SMILES	TRPV1 potentiator	Six1-Eya2 blk	TRPML1 ag	D2 PAM	TRPML1 blocker	CtBP-E1A inh
CCCCc1n[nH]c2c1/C(=N/O)CC(C)(C)C2	-9	7	-0.9	-8	15	1
CCOC(=O)c1c(-c2ccco2)csc1N	10	-8	-0.6	2	-9	0
COC(C/C=C/[C@@H](O)COCc1ccccc1)OC	-21	-2	-0.3	-3	-16	·
COc1ccc(C(C)=O)cc1COC(=O)CNC(=O)c1ccc(Cl)cc1	?	-1	1.1	-9	2	·
CCC(=O)Nc1cc(ON=C(C)C)cc([N+](=O)[O-])c1	-11	2	1.1	-4	-3	-17
CC(C)N(CC(N)=O)C(=O)Cc1coc2cc3c(cc12)CCC3	1	3	0.2	9	-3	-2
Cc1nc(N2CCN(c3ccccn3)CC2)c2c(C)c(C(=O)Nc3ccc(F)cc3)sc2n1	-6	-1	0.1	-5	28	-18
CCOC(=O)C1CCCN(C(=O)c2cccc(NC(=O)C(CC)CC)c2)C1 (centres undefined)	-1	-17	-0.3	-3	-3	-5
Cc1ccsc1/C=N/NC(=O)c1cccnc1	-1	5	1.1	-4	18	-17
COc1ccc([C@@H]2COc3c(ccc4c3C=CC(C)(C)O4)C2)c(OC)c1	·	0	·	5	·	-13
O=C(O)C(Oc1ccc(Cl)cc1)c1ccc(Cl)cc1 (centres undefined)	·	3	-0.4	3	-5	1
COCC1=C(C(=O)OC)C(c2ccco2)n2ncnc2N1 (centres undefined)	2	21	0.1	10	-1	0
Cc1ccc(OCC(=O)N/N=C\c2ccc(C)o2)c([N+](=O)[O-])c1	2	-3	1.1	-6	-3	6
COC(=O)C1=C(C(=O)OC)[C@@H]2Nc3ccccc3[C@@]23C[C@@H](C(=O)OC)N(C(=O)c2ccco2)C3=N1	·	3	-0.6	4	-17	0
O=C(COc1ccccc1)Nc1nn[nH]n1	-1	-3	-0.5	-3	-2	-6
O=C(CCNc1cccc(Cl)c1)c1ccco1	-20	0	2.1	0	10	3
COc1cccc2cc(C(=O)Nc3cc(C)cc(C)c3)/c(=N/NS(=O)(=O)c3ccccc3)oc12	8	1	-0.4	-4	-8	3
Cc1sc2nc[nH]c(=S)c2c1-c1ccccc1	-4	-14	1.9	-21	3	-8
Cc1ccc(C)c(NC(=O)c2sc(Cl)nc2-c2ccccc2)c1	2	16	5.0	-3	0	12
CCCCNC(=O)C1(C)CCCCN1C(=O)c1ccc(F)c(C)c1 (centres undefined)	·	23	-0.4	-3	·	25
CCc1nonc1NC(=O)c1oc2ccc(F)cc2c1C	-7	3	0.6&1.1	-9	-8&-19	·
CCOC(=O)c1ccc(NC(=O)Cn2nc(C)c3ccccc3c2=O)cc1	1	1	0.5	-2	12	-4
OCC1OC(n2cnc3c(SCc4ccccc4)nc(NO)nc32)C(O)C1O (centres undefined)	·	-2	-0.2	17	-7	3
Nc1ccc(S(=O)(=O)c2cccc(N)c2)cc1	-11	-2	0.0	-1	19	0
Cc1ccc(NC(=O)c2cccc(NC3=NC4CS(=O)(=O)CC4S3)c2)cc1C (centres undefined)	-10	2	-0.4	-4	9	0
Nc1nc(SCC(=O)NCc2ccccc2Cl)[nH]c(=O)c1NC(=O)c1ccccc1F	5	6	2.5	2	5	16
Cc1cc(C)cc(NC(=O)Nc2ccc3c(c2)N(C)C(=O)CS3)c1	-9	-18	-0.4	3	-4	-14
COC(=O)c1cccc(S(=O)(=O)N2CCC(n3nnc4cc(F)ccc43)CC2)c1	-7	-12	0.2	-6	17	-13
O=C(O)CCCNc1ccc(S(=O)(=O)N2CCCCC2)cc1	0	-14	-0.1	-8	-10	-15
CCNCc1ccc(OCc2cccs2)c(OCC)c1	4	8	1.0	-8	-2	·

Next part; the last 4 above are carried over.
SMILES	TRPV1 potentiator	Six1-Eya2 blk	TRPML1 ag	D2 PAM	TRPML1 blocker	CtBP-E1A inh
Cc1cc(C)cc(NC(=O)Nc2ccc3c(c2)N(C)C(=O)CS3)c1	-9	-18	-0.4	3	-4	-14
COC(=O)c1cccc(S(=O)(=O)N2CCC(n3nnc4cc(F)ccc43)CC2)c1	-7	-12	0.2	-6	17	-13
O=C(O)CCCNc1ccc(S(=O)(=O)N2CCCCC2)cc1	0	-14	-0.1	-8	-10	-15
CCNCc1ccc(OCc2cccs2)c(OCC)c1	4	8	1.0	-8	-2	·
CN(C)C(=S)SCC(=O)Nc1ccc(Cl)cc1Cl	-5	4	0.7	?	15	7
Cc1cccc(-c2noc(CCC(=O)NCc3ccco3)n2)c1	-12	-2	0.6	-1	-18	7
Cc1cc(C)c(NC(=S)NCC2CCN(C(C)c3ccccc3)C2)c(C)c1 (centres undefined)	2	-13	-0.9	-23	-18	-6
O=C(CC1SC(=NCC2CCCO2)NC1=O)Nc1cc([N+](=O)[O-])ccc1Cl (centres undefined)	1	-6	-0.3	-15	1	-3
NC(=O)c1ccc(N2CCN(c3ccccc3O)CC2)c([N+](=O)[O-])c1	1	1	-0.6	4	26	6
CCOC(=O)NNC(=S)Nc1c(C)n(C)n(-c2ccccc2)c1=O	·	12	-0.3	4	-3	-1
O=C(Nc1ccc(Cl)cc1)N1CCC(c2nc(-c3ccccc3Cl)no2)CC1	-8	-5	-0.3	-16	2	-4
CCOC(=O)N1N=C(C)CC1(O)c1ccc(Cl)cc1 (centres undefined)	17	2	0.0	-2	-12	0
Cc1ccc(-c2onc3ccc(Br)cc23)cc1	-6	25	0.1	9	27	7
CC(=O)Nc1ccc(NC(=O)C(C)OC(=O)C2(c3ccc(Cl)cc3)CCCC2)cc1 (centres undefined)	-6	2	0.8	5	8	-2
c1ccc2c(c1)CCN(c1nc3cc4c(cc3s1)OCO4)C2	·	-22	2.7	-7	13	-25
CCOc1cccc(C2/C(=C(/O)c3ccc4c(c3)CC(C)O4)C(=O)C(=O)N2CCN2CCOCC2)c1 (centres undefined)	0	6	-0.4	-3	-5	13
CCc1noc(C)c1C(=O)N1CCN(S(=O)(=O)c2cccs2)CC1	-1	4	-0.4	15	-4	4
CCCCn1c(-c2c(Cl)c(C)nn2C)n[nH]c1=S	7	-10	-0.9	-14	3	13
CCCCC1=CC2=CC(=O)C(C)(OC(=O)CC)C(=O)C2=CN1Cc1ccc(OC)cc1 (centres undefined)	?	-4	-0.3	-1	-2	-4

2 entries picked at random from those above:
SMILES	TRPV1 potentiator	Six1-Eya2 blk	TRPML1 ag	D2 PAM	TRPML1 blocker	CtBP-E1A inh
Cc1cc(C)c(NC(=S)NCC2CCN(C(C)c3ccccc3)C2)c(C)c1 (centres undefined)	2	-13	-0.9	-23	-18	-6
Cc1cccc(-c2noc(CCC(=O)NCc3ccco3)n2)c1	-12	-2	0.6	-1	-18	7

(listing goes on)
SMILES	TRPV1 potentiator	Six1-Eya2 blk	TRPML1 ag	D2 PAM	TRPML1 blocker	CtBP-E1A inh
NS(=O)(=O)c1ccc(CNC(=O)c2cnccn2)cc1	1	3	·	-8	·	2
CC(=O)N1CCC(N(CCN2CCOCC2)C(=S)Nc2ccc(C)cc2C)CC1	8	5	-0.5	7	10	3
Cc1ccc2nc(C)c(C(=O)N/N=C/c3cccs3)cc2c1	-11	-7	0.0	-7	79	18
NC(=O)CSc1nnc2n(-c3ccccc3)c(=O)c3c4c(sc3n12)CCCCC4	-5	-2	-0.9	11	-3	-5
COc1ccc(CC(=O)NC2CCCc3ccccc32)cc1 (centres undefined)	-17	7	-0.2	-3	10	-10
CC1(C)CC(=O)C=C(c2cccc(OC(=O)c3ccc(-c4ccccc4)cc3)c2)C1=O	·	-26	0.1	1	11	7
Cc1noc(C)c1NC(=O)Nc1ccc2c(c1)C(=O)N([C@H](C)CO)C[C@H](C)[C@@H](CN(C)C(=O)Nc1c(C)noc1C)O2	·	-1	-0.5	-1	-1	7
COc1cccc(C(=O)NC2CCCc3c2cnn3-c2cc(C)cc(C)c2)c1 (centres undefined)	3	-5	4.4	-23	-13	-7
Cc1nonc1C(=O)N/N=C/c1ccncc1	8	-7	1.1	-3	2	·
O=CNCCc1nc2ccccc2n1CCc1ccccc1	-26	-1	-0.5	-2	4	0
Brc1cccc(-c2nc3c4ccccc4ccn3c2Cc2ccccc2)c1	·	0	0.5	-9	·	4
COC(=O)c1cncc(O)c1	5	-2	-0.7	-24	5	-2
O=[N+]([O-])c1ccc(/C=N/NC2=NS(=O)(=O)c3ccccc32)cc1	-6	1	0.5	-6	7	-5
COc1ccc(CCNc2oc(-c3ccc(OC)c(OC)c3)nc2C#N)cc1	8	?	5.8	-8	37	-27
Cc1cccc([C@@H]2[C@@H]3C(=O)N(Cc4ccccc4)C(=O)[C@@H]3[C@]3(C)C(=O)N(c4ccc(Br)cc4)C(=O)N23)c1	-9	-2	0.3	5	3	·
Cn1cncc1C#Cc1ccc2cc(C(C)(C)O)oc(=O)c2c1	0	14	-0.1	-3	12	27
FC(F)(F)c1cccc(-n2c(Cn3nnc4ccccc43)n[nH]c2=S)c1	14	8	0.9	-4	3	2
Cc1cc(CSc2ccccc2)ccc1NC(=O)c1ccc(C)c([N+](=O)[O-])c1	1	1	1.2	-9	35	·
CC(=O)c1c(C)nc2ccc(Cl)cn12	-1	-14	2.2	-24	-5	-6
O=C(Nc1nccs1)c1ncc(Cl)c(Cl)c1Cl	-10	6	0.5	-2	-1	2
CCOC(=O)c1ccccc1NC(=O)COC(=O)CSC(C)C(=O)Nc1cc(C)on1 (centres undefined)	8	-1	-1.0	3	-5	-2
COc1ccc(NC(=O)NC2CCCc3ccccc32)cc1OC (centres undefined)	-8	6	-0.4	9	-4	-10
CC(C)NC(=O)N(C)C[C@@H]1OCc2cnnn2CCCC(=O)N([C@@H](C)CO)C[C@H]1C	·	8	-0.1	3	8	4
CN1CCN(NC(=O)c2ccc(Cl)s2)CC1	3	-3	0.3	-53	-20	1
O=C(COc1ccc(-c2nnc(N3CCCCC3)c3ccccc23)cc1)N1CCCCC1	10	-8	0.4	-7	5	-14
CNc1cncc(-c2ccc(NS(C)(=O)=O)cc2)n1	·	-8	-0.4	-4	·	0
Cc1cc(C)nc(/N=C(\N)Nc2cc([N+](=O)[O-])ccc2C)n1	16	0	0.3	-21	-15	4
COc1ccccc1CNCC(=O)Nc1ccccc1-n1cccc1	-18	-11	1.7	-8	-6	-4
CCCOc1ccc(CN(CCC#N)C(=S)NC(=O)c2ccccc2)cc1	-7	-4	2.2	-19	-10	0
O=C(Nc1csc([N+](=O)[O-])c1)Nc1ccccc1Cl	3	-13	0.5	-11	-15	-7
CCN(CC)CCC(C)OC(c1ccccc1)c1ccccc1 (centres undefined)	9	16	0.8	-8	10	·
CCN(c1ccccc1)S(=O)(=O)c1ccc(C(=O)Nc2nnc(COC)o2)cc1	7	-22	-0.4	10	6	-1
CC(C)C1Oc2ccccc2N(CC(=O)N2CCOCC2)C1=O (centres undefined)	-4	4	0.2	3	2	1
O=C(NCCN1CCOCC1)C1CCCN(S(=O)(=O)c2ccc(F)cc2)C1 (centres undefined)	2	1	-0.2	-10	-4	-5
O=C(NC1CCCCCC1)c1c(O)c2ccccc2[nH]c1=O	0	9	-0.2	-10	-1	-1

Source: PubChem BioAssay (National Center for Advancing Translational Sciences (NCATS))
